# Sa RN4220 lethal = S. aureus RN4220 growth inhibition; OD600, 16 h; inhibition, % (test concentration not listed); 330,000 compounds, 0.33% hits; AID 1259311;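 active = z-score of -3 or lower and OD600 up to 0.18 on both plates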;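 also: plate controls were untreated cells for no effect and reference antibiotic for full effect; stock transfer was 100 nL into about 80 µL; one replicate is shown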
# ugtP null kill = growth inhibition of S. aureus ugtP deletion strain; S. aureus RN4220 ugtP deletion, OD600 growth, 16 h; some inactives read as strong as hits; growth inhibition, % (test concentration not listed); 330,000 compounds, 0.54% hits; AID 1259309;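 active = z-score under -3 and OD600 up to 0.15 on both plates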;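 also: plate controls were untreated wells for no effect and antibiotic for full effect; wells of about 80 µL received 100 nL stock; the first replicate is given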
# Bead autofluor = counter-screen for toxin protease inhibitors: compound fluorescence; compound autofluorescence counterscreen, microsphere flow cytometry; active compounds read high; fluorescence intensity (concentration not given with the values); 360,000 compounds, 3.1% hits; AID 624483;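 active = at least 3 SD above the mean of all compounds, about 16000 in these data; inconclusive = too few beads counted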;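 also: 100 nL of 1 mM stock went into each well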
# Mtb hypoxia rep = inhibitors of hypoxia-regulated fluorescent reporter in Mycobacterium tuberculosis; AID 1159583; 300,000 compounds, 0.1% hits; fluorescence inhibition, % (test concentration not listed); M. tuberculosis hypoxia-regulated fluorescent reporter, fluorescence;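 active = 35 to 45% if threefold the growth effect, above 45% if 1.5-fold the growth effect; inactive = the rest, general growth blockers included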;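 also: wells of about 50 µL received 100 nL stock; 0% = vehicle wells and 100% = reference inhibitor wells; whole bacteria with a GFP reporter of the hypoxia response; strong numbers were not always called active; many hits fall short of the cut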
# BJeLR lethal = kills HRASV12-expressing BJeLR cells; 300,000 compounds, 0.17% hits; BJeLR (HRASV12) viability, CellTiter-Glo ATP luminescence, 48 h; reference of the scale not given here; inhibition, % (test concentration not listed); AID 1554;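 active = replicate mean above 50%; inconclusive = above 50% but judged a plate artefact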;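 also: 50 nL library stock added to about 25 µL; numbers are from one replicate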
# PrP 5UTR inh = inhibition of PrP 5' UTR reporter expression; 340,000 compounds, 0.35% hits; inhibition, % (no concentration beside the values); cell-based PrP 5' UTR mRNA reporter, plate reader;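 active = every replicate at 50% or more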;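 also: 0 = median of the neutral control wells; tested in H4 reporter cells; numbers are from one replicate; inactives centre near -14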
# Mtb hypoxia rep growth = second read-out of Mtb hypoxia rep, no call of its own (marks repeat the call); growth inhibition, %; measured here: M. tuberculosis growth (absorbance);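 0% = vehicle and 100% = reference antibiotic; read after six days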
# * hit, by the source's call; ? = inconclusive; nt = not tested or not shown.
SMILES,Sa RN4220 lethal,ugtP null kill,Bead autofluor,Mtb hypoxia rep,Mtb hypoxia rep growth,BJeLR lethal,PrP 5UTR inh
COc1ccc(C2c3[nH]c4ccccc4c3CCN2C(=O)c2cn3ccccc3n2)c(F)c1 (stereo unspecified),9.8,8,4974,-14,-1,3,-11
CC(=O)C1=C(C)NC(SCC(=O)Nc2nc3ccccc3s2)=C(C#N)C1c1ccc(Cl)cc1 (stereo unspecified),-3.6,-12,2705,5,2,6,-31
O=C(COC(=O)CCSc1ccc(Cl)cc1)Nc1ccc(F)cc1,4.5,2,2528,0,-4,-7,-16
O=C(CCCc1ccccc1)NCCS(=O)(=O)N1CCN(c2ccccc2F)CC1,-0.2,-2,5706,-4,9,1,-15
COc1ccc(SC(CCN2CCC(O)CCC2=O)c2ccccc2)cc1 (stereo unspecified),12,6,nt,8,11,nt,nt
CCCc1nnc(SCC(=O)Nc2nnc(CC)s2)n1CC1CCCO1 (stereo unspecified),nt,nt,3542,nt,nt,-2,-16
CCCCCC(=C/c1ccccc1)/C=N/Nc1ccc(S(=O)(=O)N2CCOCC2)cc1[N+](=O)[O-],2.2,4,3288,6,14,nt,-20
Cc1cc(N2CCCC(C(=O)Nc3cccc(Cl)c3)C2)n2ncnc2n1 (stereo unspecified),-4.2,3,3893,-5,-1,-2,-28
Cc1nn(-c2ccccc2)c(C)c1Cc1ccc(O)cc1,4.9,1,3869,0,8,-6,-31
O=C(Nc1cc(=O)[nH]c2ncnn12)c1ccccc1,1.4,0,2948,7,7,-8,-20
Cc1ccc(C2c3c(oc4ccccc4c3=O)C(=O)N2c2nncs2)cc1 (stereo unspecified),4.0,8,5624,10,6,-2,-50
COc1ccccc1N1CCN(Cc2ccc(O)c3ncccc23)CC1,6.6,-2,11933,-6,-6,16,nt
CC(C)CN(C(=O)COC(=O)c1ccc(Cl)c(N)c1)c1c(N)n(Cc2ccccc2)c(=O)[nH]c1=O,3.9,5,?,-4,9,-6,-25
COc1ccccc1CC(=O)N1CCN(CCc2ccccc2)CC1,2.0,2,4010,8,4,-5,-15
COc1cc(C)ccc1OCCOc1ccccc1Cl,7.2,20,2623,nt,nt,5,-67
CCc1ccc(C2=NN(CCC(=O)NC(C)CCc3ccccc3)C(=O)CC2)cc1 (stereo unspecified),7.3,5,3719,-4,-2,-6,0
COc1ccc(CCN(C(=O)c2cccc(F)c2)C2CC(=O)N(c3ccccc3)C2=O)cc1 (stereo unspecified),4.1,1,2520,3,1,-7,2
COC(=O)CC1C(=O)NCCN1C(=S)NC(=O)CCc1ccccc1 (stereo unspecified),0.1,7,4484,2,-10,8,-6
COc1ccc2c(c1)cc(C(=O)N[C@@H](CCSC)C(=O)N1CCC[C@H]1C(=O)O)n2C,4.2,-5,5395,nt,nt,-6,8
O=C1Cc2ccccc2C(c2ccc(Cl)cc2Cl)N1 (stereo unspecified),2.3,0,3419,-1,5,7,7
Cc1ccnc(NCc2cc(C)ccc2O)c1,1.7,2,4310,12,2,-3,-37
C=CCc1cccc2cc(C(=O)NNC(=O)CC#N)c(=O)oc12,4.1,10,4747,-9,3,6,-18
FC(F)(F)c1cccc(NC(=S)NCCc2ccccn2)c1,-1.4,-11,21974*,-1,7,-7,1
Nc1c(S(=O)(=O)c2cccs2)c2nc3ccccc3nc2n1Cc1cccs1,-14,-9,2901,-1,3,5,-8
CCOC(=O)C1=C(C)NC(=O)NC1c1c(OC)ccc2ccccc12 (stereo unspecified),3.2,-4,3284,-3,1,1,-13

# New compounds follow.
SMILES,Sa RN4220 lethal,ugtP null kill,Bead autofluor,Mtb hypoxia rep,Mtb hypoxia rep growth,BJeLR lethal,PrP 5UTR inh
Cc1ccc(/C=N/NS(=O)(=O)c2ccccc2)o1,nt,nt,9255,nt,nt,-1,-15
Cc1csc(Sc2nc3c(c(=O)[nH]c(=O)n3C)n2CCCc2ccccc2)n1,5.6,5,8671,13,13,3,-17
CN(C)c1ccc(N/C(N)=N/c2nc(C(F)(F)F)cc(C(F)(F)F)n2)cc1,3.6,1,3368,21,23,-3,-22
Cc1ccc(S(=O)(=O)NNC2=NS(=O)(=O)c3ccccc32)c(C)c1,6.7,5,1989,11,8,6,-6
c1nc2n(n1)C1=C(CCCC1)C1(CCCCC1)N2,nt,nt,3966,nt,nt,12,-10
O=C(c1ccc(F)cc1)N1CCN2C(=O)c3ccccc3C12c1ccccc1 (stereo unspecified),0.8,-1,5787,17,16,3,-12
O=C(CCCc1nc2ccccc2s1)NCc1ccccc1F,0.3,11,2478,3,0,22,-16
CCOCC(=O)Nc1ccc(S(=O)(=O)NCCc2ccccc2)cc1,0.3,8,4447,nt,nt,-4,-18
NS(=O)(=O)c1ccc(CCNC(=O)c2ccc(NC3=NC4CS(=O)(=O)CC4S3)cc2)cc1 (stereo unspecified),6.5,7,4739,9,10,-11,-11
CC(=O)N1CCN(Cc2nc3ccc(Cl)cc3n2CCO)CC1,0.0,-7,3180,6,-1,9,-16
COc1cc(OC)c2c(-c3cccc(-c4sccc4C(C)=O)c3)cc(=O)oc2c1,2.9,8,3466,0,1,nt,29
COCCCNc1ncnc2c1cnn2-c1ccc(C)cc1C,3.9,2,5234,14,15,-4,-21
CC(=O)N1c2ccc(S(=O)(=O)N(C)C3CCCCC3)cc2CC1C (stereo unspecified),5.4,-4,4919,-3,1,-2,-3
COc1ccc(N2CCN(C(=O)C(=O)c3cn(CC(=O)N4CCOCC4)c4ccccc34)CC2)cc1,2.5,5,5948,5,1,5,-26
COc1cc(C)c(Br)cc1S(=O)(=O)N1CCOCC1,0.4,4,4747,nt,nt,2,-12
Cc1noc(C)c1CSc1nc2sc3c(c2c(=O)n1C)CCCC3,7.2,28,10483,11,9,4,-5
Nn1c(SCC(=O)Nc2ccccc2)nnc1C1CCCCC1,1.8,-1,6704,7,10,-17,-2
CCCn1c(=N)c(C#N)cc2c(=O)n3ccccc3nc21,nt,nt,2666,nt,nt,2,-16
COc1cc(/C=N/NC(=S)Nc2cccnc2)cc(OC)c1OC,nt,nt,3312,nt,nt,13,-13
CC(C)(C)OC(=O)N1CCC[C@H]1c1nnc(SCc2ccc(Cl)cc2)o1,3.0,-4,5937,5,5,8,-18
O=C(NC1CCS(=O)(=O)C1)c1cc(-c2ccccc2)nc2ccccc12 (stereo unspecified),8.9,8,4120,4,3,-2,3
N#CC(c1ccccc1F)(c1ncc(C(F)(F)F)cc1Cl)N1CCOCC1 (stereo unspecified),1.2,-16,6962,-9,9,10,4
CC(SC1=NCCN1S(C)(=O)=O)c1ccccc1 (stereo unspecified),-0.3,1,5746,0,7,1,-14
Cc1ccc(N(CC(=O)N2CCCCC2)S(=O)(=O)c2ccc(C)cc2)cc1,1.1,0,4404,5,5,12,-38
CC(C)(C)c1ccc(OCCON2C(=O)CCC2=O)c(Cl)c1,12,-9,9203,12,7,0,-18

# Record cards (already shown). Order of values: Sa RN4220 lethal	ugtP null kill	Bead autofluor	Mtb hypoxia rep	Mtb hypoxia rep growth	BJeLR lethal	PrP 5UTR inh
# `CCOCC(=O)Nc1ccc(S(=O)(=O)NCCc2ccccc2)cc1` is listed with 0.3	8	4447	nt	nt	-4	-18
# `COc1cc(OC)c2c(-c3cccc(-c4sccc4C(C)=O)c3)cc(=O)oc2c1` is listed with 2.9	8	3466	0	1	nt	29

# (more compounds)
SMILES,Sa RN4220 lethal,ugtP null kill,Bead autofluor,Mtb hypoxia rep,Mtb hypoxia rep growth,BJeLR lethal,PrP 5UTR inh
COc1ccccc1/C=C/C(=O)Nc1cccc(S(=O)(=O)N2CCOCC2)c1,-3.2,-19,3415,-4,9,nt,-24
c1ccc2c(NC3=NCCCCS3)cccc2c1,2.0,-7,3760,nt,nt,-6,-10
O=C(c1ccccc1)N1CCN(c2ccc([N+](=O)[O-])cc2-n2cccc2)CC1,-2.7,60,6011,4,8,-4,-11
C=CCn1c(=O)c(C(=O)NCc2ccc3c(c2)OCO3)c(O)c2ccccc21,0.2,9,3412,10,-1,-18,-13
Cc1cccc(NC(=O)c2cc(NC(=O)CCCC(=O)O)ccc2Cl)n1,-0.8,8,23857*,5,3,-6,-12
O=C(COC(=O)C1=COCCO1)Nc1c(F)cccc1F,2.4,5,5199,6,-3,-9,-18
O=C(Nc1nccs1)c1cccc(NC(=O)C(F)(F)F)c1,5.2,8,3820,-5,-1,-8,-6
O=C(NCC1CCCCC1)c1cccc([N+](=O)[O-])c1,3.4,16,3885,nt,nt,2,-41
O=C(Oc1cccc2c(OC(=O)N3CCOCC3)cccc12)N1CCOCC1,7.2,5,15381,11,7,-1,-15
COc1ccc(/C=C/C(=O)OCCCN(C)C)cc1,1.7,2,2711,9,6,-6,-14
COc1cc2c(=O)n(Cc3ccccc3)c(=O)n(CC(=O)C(C)(C)C)c2cc1OC,7.2,4,nt,5,-5,-7,nt
CC(=O)Nc1cccc(NC(=O)c2cc(-c3cccnc3)nc3ccc(Cl)cc23)c1,-3.4,-4,4457,16,2,-30,-11
Cc1cccc(NC(=O)CN2CCN(CC(=O)Nc3ccc(-c4ccccc4)cc3)CC2)c1C,1.3,4,3779,-2,-2,-4,-4
O=C(NN=Cc1ccnc2ccccc12)c1ccccc1O,1.8,-5,nt,2,2,nt,nt
O=c1c2ccccc2ncn1-c1ccc([N+](=O)[O-])c(C(F)(F)F)c1,0.0,-6,2165,12,6,9,-14
COc1ccc(NC(=O)c2ccc(-c3ccccc3)cc2)cc1NS(=O)(=O)c1ccc(F)cc1,0.6,5,2083,nt,nt,-23,-1
Cc1ccc2[nH]c3nc(NN=Cc4cccc(O)c4)nnc3c2c1,-3.7,-6,nt,16,3,nt,nt
COc1ccc(S(=O)(=O)Nc2cc3[nH]c(=O)oc3cc2C)cc1,0.9,0,2802,0,-1,2,-26
COc1ccc(CCNC(=O)C2CCN(S(=O)(=O)N3CCCCC3)CC2)cc1OC,4.2,4,11669,4,-6,-2,-6
CCC(C(=O)OCC(=O)N1CCN(S(=O)(=O)c2ccc(C)cc2C)CC1)c1ccccc1 (stereo unspecified),4.4,3,3602,9,2,nt,-26
CCCn1nc(Oc2nc(SC)nc(N(C)C)n2)ccc1=O,6.0,-2,2637,nt,nt,-2,-3
CCOCCn1c(SCc2ccccc2)nc2c1c(=O)[nH]c(=O)n2C,14,17,4467,-3,-1,7,8
O=c1c2ccccc2nc(N2CCN(c3ccccc3)CC2)n1Cc1ccccc1,-6.0,9,4555,1,5,0,-2
O=C(N/N=C/C=C/c1ccccc1)c1cccs1,nt,nt,4520,nt,nt,0,-31
CCOc1ccc(/C=C/C(=O)CCC(=O)O)cc1,3.8,58,4456,-2,1,8,-2

# Some entries already given, reduced to Sa RN4220 lethal, Mtb hypoxia rep and Bead autofluor:
structure	Sa RN4220 lethal	Mtb hypoxia rep	Bead autofluor
COc1ccc(CCNC(=O)C2CCN(S(=O)(=O)N3CCCCC3)CC2)cc1OC	4.2	4	11669
CCC(C(=O)OCC(=O)N1CCN(S(=O)(=O)c2ccc(C)cc2C)CC1)c1ccccc1 (stereo unspecified)	4.4	9	3602

# The list goes on.
SMILES,Sa RN4220 lethal,ugtP null kill,Bead autofluor,Mtb hypoxia rep,Mtb hypoxia rep growth,BJeLR lethal,PrP 5UTR inh
Cc1ccc(/C=N/NC(=O)C2(C)CC2(Br)Br)cc1 (stereo unspecified),nt,nt,2712,nt,nt,-1,-3
Cc1ccc(NNc2c(C)nc3ccccc3nc2=O)cc1,nt,nt,4480,nt,nt,11,-16
COc1cc(OC)c(NS(=O)(=O)c2cc(C(=O)OCC(=O)NCC3CCCO3)ccc2OC)cc1Cl (stereo unspecified),1.9,4,4676,15,-2,5,-55
CC(C)CCn1cnc2c(c1=O)c1nc3ccccc3nc1n2Cc1ccc2c(c1)OCO2,-1.6,4,5652,6,6,-8,1
CC1(C(=O)Nc2ccc3c(c2)OCCO3)CC1(Cl)Cl (stereo unspecified),2.5,4,5372,6,4,-18,-18
O=C(c1ccc(OCc2cn3ccccc3n2)cc1)N1CCN(S(=O)(=O)c2ccccc2F)CC1,0.0,-6,5572,-6,-2,nt,-13
Brc1ccc(-c2ncc(-c3ccccc3)cn2)cc1,8.3,9,2911,7,4,-3,-103
